YjeE inh: YjeE (TsaE) inhibition, E. coli. AID 605. Potency, µM. hit rate 0.05% among 71,000. purified YjeE, fluorescence polarisation of a bound ADP probe; active = well fitted falling curve; inconclusive = weaker or top-dose-only fall, or a rising curve; inactive = flat or poorly fitted curve;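 further: top concentration of the series not given in the record; excess ADP was the control for the full effect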
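Purified YjeE (10 uM) with BODIPY Texas Red-labeled ADP probe (2 uM); compounds pin-transferred, 15 min at room temperature. Binding inhibition read as decreased fluorescence polarization; ADP titration as control.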
PK Bst: modulators of Bacillus stearothermophilus pyruvate kinase; partly purified Bacillus stearothermophilus pyruvate kinase, luminescence ATP production; ribose 5-phosphate activator present at AC10; Potency, µM; hit rate 1.2% among 51,000; AID 361; in the data active means potency below about 11 µM; inconclusive means mostly about 12 µM to 25 µM; inactive means weaker than that;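 the screen sought inhibitors and activators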;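 further: potency means the concentration at half of the fitted maximal effect; scaled between full activation by ribose 5 phosphate and full inhibition by luteolin; about four in five hits inhibit and the cells do not say which; series up to 57 µM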
* = called active by the depositor; i = inactive; ? = inconclusive; · = not tested or not shown. Not all compounds are listed; rates above refer to the full screens.

Fields: YjeE inh	PK Bst
> CC(C)C(NC(=O)OCc1ccccc1)C(=O)OCC(=O)N1CCCCC1 (stereo not drawn)
    i	>57
> Cc1cc(C(=O)CN2C(=O)c3ccccc3C2=O)c(C)n1Cc1cccs1
    i	11*
> Cc1cc(C)cc(N(CCC#N)C(=O)CSc2nc3nc(C)cc(C)n3n2)c1
    i	>57
> CC(=O)NCCCc1c[nH]c2ccc(Cl)cc12
    i	>57
> O=S(=O)(NC1CCCC1)c1ccc(S(=O)(=O)NC2CCCC2)cc1
    i	>57
> C=C1C(C(=O)N2CCN(C)CC2)C1C(=O)N1CCN(C)CC1 (stereo not drawn)
    i	>57
> Cc1ccc(C(=O)Nc2ccc(Cl)cn2)cc1S(=O)(=O)N1CCOCC1
    i	·
> Cc1ccc(C)o1
    i	·
> CCOc1cc(C#N)c(NC(=O)c2cccnc2)cc1OCC
    i	>57
> CCOC(=O)Cc1csc(SCc2nc3ccccc3c(=O)[nH]2)n1
    i	>57
> O=C(c1ccco1)N1CCC2(CCCN(c3ccccn3)C2)CC1
    i	·
> CCOC(=O)C(C)Oc1cccc2c(=O)n(CC(=O)N3CCc4ccccc43)ccc12 (stereo not drawn)
    i	·
> O=C(NC1(C(=O)NC2CCCC2)CCCCC1)c1ccc2c(c1)OCO2
    i	>57
> CC(=O)C1=C(O)C(=O)N(Cc2cccnc2)C1c1ccccc1Cl (stereo not drawn)
    ·	>11
> CCN(Cc1ccccc1)C(=O)CCc1nc(-c2ccc(C)cc2)no1
    i	>57

The final 7 records of the section above are carried over, then new ones follow.
Fields: YjeE inh	PK Bst
> CCOc1cc(C#N)c(NC(=O)c2cccnc2)cc1OCC
    i	>57
> CCOC(=O)Cc1csc(SCc2nc3ccccc3c(=O)[nH]2)n1
    i	>57
> O=C(c1ccco1)N1CCC2(CCCN(c3ccccn3)C2)CC1
    i	·
> CCOC(=O)C(C)Oc1cccc2c(=O)n(CC(=O)N3CCc4ccccc43)ccc12 (stereo not drawn)
    i	·
> O=C(NC1(C(=O)NC2CCCC2)CCCCC1)c1ccc2c(c1)OCO2
    i	>57
> CC(=O)C1=C(O)C(=O)N(Cc2cccnc2)C1c1ccccc1Cl (stereo not drawn)
    ·	>11
> CCN(Cc1ccccc1)C(=O)CCc1nc(-c2ccc(C)cc2)no1
    i	>57
> CCCCCC1=C2CNC(Cc3ccccc3)(C(=O)OC)C=C2C(C)C1=O (stereo not drawn)
    i	·
> Cc1nc(-c2coc3cc(OCC(=O)O)ccc3c2=O)cs1
    ·	9.6*
> CS(=O)(=O)N(CCc1ccccc1)CC(=O)NCc1ccco1
    i	>57
> O=C(CCn1c(=O)sc2ccccc21)NC1=NCCS1
    i	>57
> O=C(Nc1ccc2c(c1)OCO2)[C@@H]1[C@@H]2C(=O)N(C3CCCCC3)C(=O)[C@@H]2C2c3ccccc3C=CN21 (stereo partly drawn)
    i	>57
> CC(=O)N1C2(C=CC1(C)C(=O)NCCN1CCOCC1)CCCCC2 (stereo not drawn)
    i	·
> N=c1c(S(=O)(=O)c2ccccc2)cc2c(=O)n3ccccc3nc2n1CCN1CCOCC1
    i	>57
> CC(C)COC(=O)N1CC(O)CC1C(=O)O (stereo not drawn)
    i	>57
> CCCN1CC=C2C(C#N)=C(N)C(C#N)(C#N)C(c3cccc(OC)c3OC)C2C1 (stereo not drawn)
    i	>57
> FC(F)(F)c1ccccc1-c1cncnc1Nc1ccccc1
    i	·
> CC1(C)CC(=NO)CC(C)(C)N1
    i	>57
> Cc1cccc(C)c1NC(=O)CSc1nnc([C@@H]2CCCN2C(=O)OC(C)(C)C)o1
    i	>57
> O=C(Cn1cnc2c(cnn2-c2ccccc2)c1=O)N1CCN(c2ccc(F)cc2)CC1
    i	>57
> CCCCOC(=O)C1=C(C)NC2=C(C(=O)CCC2)C1c1cc(OC)ccc1OC (stereo not drawn)
    i	>57
> CC1CCc2nn(CC(=O)NCCCN3CCCCC3)cc2C1 (stereo not drawn)
    i	·
> CCc1nnc(NC(=O)COC(=O)CN2C(=O)c3ccccc3C2=O)s1
    i	>57
> Cc1cc(O)c(C(C)C)cc1N=C1CSC(=O)N1
    ·	>11
> COc1ccc(CCNc2nc(-c3sc(N)nc3C)cs2)cc1OC
    i	·
> N#CCCN1CCN(C(=S)c2ccc(-c3cc(Cl)ccc3Cl)o2)CC1
    i	>57
> O=C(CN(CCc1ccccc1)C(=O)CNS(=O)(=O)c1ccc(F)cc1)NCc1ccco1
    i	>57
> CC1CCN(CC(O)COC2CCC(C(C)(C)C)CC2)CC1 (stereo not drawn)
    i	>57
> O=C(NCC1CCCO1)c1ccc(NC(=O)C2CCCCC2C(=O)O)cc1 (stereo not drawn)
    i	>57
> CCN(CC)C(=O)Sc1cccc2cccnc12
    i	>11
> CN(C)c1ccc(C(=C2C=CC(=[N+](C)C)C=C2)c2ccc(N(C)C)cc2)cc1
    5µM*	·
> CCc1ccccc1NC(=O)Cn1nnc(-c2cccs2)n1
    i	>57
> N#Cc1c(NC(NC(=O)c2ccco2)C(=O)c2ccccc2)sc2c1CCCC2 (stereo not drawn)
    i	·
> C=CCn1c(SCC(=O)Nc2ccc(C)cc2C)nnc1-c1cccnc1
    i	>57
> COc1ccc(N2CCN(C(=O)CCNS(=O)(=O)c3ccc4c(c3)CCC(=O)N4)CC2)cc1
    i	>57
> CCn1c(C(=O)N2CCCC(C(=O)NCCc3ccc(C)cc3)C2)cc2sccc21 (stereo not drawn)
    i	>57
> O=c1c(CCc2ccccc2)nc2cnc(N3CCNCC3)nc2n1-c1ccccc1
    i	·
> COc1ccc(C(C)N2CC34C=CC(O3)C(C(=O)O)C4C2=O)cc1 (stereo not drawn)
    i	>57
> COCC(=O)NC1CCN(S(=O)(=O)c2ccc(C(=O)O)cc2)CC1
    i	>57
> O=c1cc(N2CCN(Cc3ccccc3)CC2)[nH]c(=O)n1Cc1ccc(F)cc1
    i	>57
> CCCCOCCCNC(=O)CN1C(=O)c2ccccc2C1=O
    i	·
> COc1ccc(N2C(=O)CSC2c2ccncc2)cc1 (stereo not drawn)
    i	>57
> COc1ccc(NC(=O)N2CCCC3(CCN(S(C)(=O)=O)CC3)C2)cc1
    i	·
> CC(=O)Nc1ccc(NC(=O)C2CCCN(c3nnc(-n4cccc4)s3)C2)cc1 (stereo not drawn)
    i	>57
> CCCCCC(=O)N1CC2(C)CN(C(=O)CCCCC)CC(C)(C1)C2=O
    ·	>26
> COc1ccc(CCNC(=O)c2nc3ncccn3n2)cc1OC
    i	>57
> OC[C@@H]1O[C@@H](O)[C@H](N=Cc2ccc3c(c2)OCO3)[C@@H](O)[C@@H]1O
    i	·
> CC1CN(C(=O)C2CCCCC2)C(C)CN1C(=O)C1CCCCC1 (stereo not drawn)
    i	>57
> O=C(CSc1n[nH]c(-c2ccncc2)n1)NC1CCS(=O)(=O)C1 (stereo not drawn)
    i	>57
> COc1ccc(-c2cc(C(F)(F)F)nc(N3CCCCC3)n2)cc1OC
    i	>57
> CC[C@@H]1O[C@]2(C=C[C@@H]1C)C[C@H]1C[C@H](CC=C(C)[C@@H](O[C@@H]3C[C@H](OC)[C@H](O[C@@H]4C[C@H](OC)[C@H](O)[C@H](C)O4)[C@H](C)O3)[C@@H](C)C=CC=C3CO[C@@H]4[C@@H](O)C(C)=C[C@@H](C(=O)O1)[C@]34O)O2
    i	·
> CCOC(=O)CSc1nnc(-c2ccc(NS(=O)(=O)c3ccc(C)cc3)cc2)o1
    i	>57

A second format for some results above.
SMILES	YjeE inh	PK Bst
OC[C@@H]1O[C@@H](O)[C@H](N=Cc2ccc3c(c2)OCO3)[C@@H](O)[C@@H]1O	i	·
CC1CN(C(=O)C2CCCCC2)C(C)CN1C(=O)C1CCCCC1 (stereo not drawn)	i	>57

More compounds
Fields: YjeE inh	PK Bst
> CCOC(=O)c1[nH]c2cc(OC)c(OC)cc2c1NC(=O)CN(C)C1CCCCC1
    i	>57
> O=C(NCCc1ccccn1)c1ccc(COc2ccccc2)o1
    i	>57
> Cc1nn(C)c(C)c1S(=O)(=O)N1CCC(C(=O)NCC2COc3ccccc3O2)CC1 (stereo not drawn)
    i	·
> CC(=O)c1c(C)[nH]c(C(=O)Nc2cccnc2)c1C
    i	>57
> COCCn1nnnc1C(c1ccc(OC)cc1)N1CCN(c2ccccc2F)CC1 (stereo not drawn)
    i	>57
> CCc1c(C)c2ccc(OCC(=O)N(C)C)c(C)c2oc1=O
    i	>57
> CC1CN=C(NC2CCCCC2C)S1 (stereo not drawn)
    i	>57
> Cc1ccc(Cn2nnc3c(=O)n(Cc4cc(C)ccc4C)cnc32)cc1
    i	>57
> O=C(O)CCc1nc2cccnc2n1Cc1ccccc1
    i	>57
> CC1CCN(C(=O)CSc2nnc(Cc3ccccc3)o2)CC1
    i	·
> COc1cccc(CNC(=O)Nc2cccs2)c1
    i	>57
> Cc1cccc(C(=O)NCCN2CCN(c3ccccc3)CC2)c1
    i	>57
> O=C(CSc1nc2ccccc2o1)NCc1ccco1
    i	·
> N#C[C@H](C(=O)O)C(c1c(Cl)cccc1Cl)[C@H](C#N)C(=O)O
    i	·
> NC(=O)c1oc2ccccc2c1NC(=O)C1CCCCC1
    i	·
> COC(=O)CNC(=O)c1c(-c2c(Cl)cccc2Cl)noc1C
    i	·
> COC(=O)c1ccc(C(NC(=O)OCc2ccccc2)/C(F)=C/[C@@H](C)C(=O)NCCN2CCOCC2)cc1 (stereo partly drawn)
    i	·
> COC(=O)c1ccc(C(/C=C/[C@@H](C)C(=O)NCCc2c[nH]c3ccccc23)NC(=O)OCc2ccccc2)cc1 (stereo partly drawn)
    i	·
> COc1ccc(C(=O)Nc2cccc(-c3nc4ncccc4o3)c2C)cc1OC
    i	>57
> O=C(C1COc2ccccc2O1)N1CCN(c2ccccc2)CC1 (stereo not drawn)
    i	>57
> COC(=O)CCSCc1cn2cc(Cl)ccc2n1
    i	>57
> COCCCNc1nc(-c2ccncc2)nc2ccccc12
    ·	i
> OC1CN=C2C=CC=CN2C1 (stereo not drawn)
    i	>57
> COc1ccc(NC(=O)N2CC3(CCN(C(=O)c4cnccn4)CC3)C2)cc1
    i	·
> CC1=C(C(=O)NC2CCCCC2C)C2(CCC(C)CC2)OC1=O (stereo not drawn)
    i	·
> CC[N+](CC)(CC)CC(=O)Nc1c(C)cccc1C
    i	·
> O=C(Cc1ccccc1)NCCn1ccc2ccccc21
    i	·
> COCCCNC(=O)Cn1nnc(-c2ccccc2NC(=O)c2ccc(F)cc2)n1
    i	>57
> Cc1cccc(-n2ncc3c(NCc4ccco4)ncnc32)c1
    ·	i
> O=C(O)C1CC=CCC1C(=O)Nc1cccc(Cl)c1 (stereo not drawn)
    i	·
> N#Cc1c(NC(=O)CSc2ncn[nH]2)sc2c1CCCCC2
    i	>57
> COc1ccc(-n2c(NC(=O)c3ccco3)c(C#N)c3nc4ccccc4nc32)cc1
    i	>57
> CCCNC(=O)N1CCN(c2nc(C(C)C)c3c(c2C#N)CC(C)(C)OC3)CC1
    i	·
> COc1ccccc1N(Cc1cc2cccc(C)c2[nH]c1=O)C(=O)C(C)C
    ·	>26
> CCCCC(CC)C(=O)O (stereo not drawn)
    i	·
> COc1cccc(-c2nc(CS(=O)CC(=O)O)c(C)o2)c1 (stereo not drawn)
    i	·
> CCOC(=O)c1nnc2ccnn2c1N
    i	>57
> COc1ccc(OC)c(C(c2nnnn2C2CCCC2)N2CCN(c3ccc(F)cc3)CC2)c1 (stereo not drawn)
    i	>57
> Nn1c(CN2CCCCC2)nc2ccccc2c1=O
    i	>57
> Cc1ccc(/C(O)=C2/C(=O)C(=O)N(CCN3CCOCC3)C2c2ccccn2)cc1 (stereo not drawn)
    i	>57
> O=C(CN1CCc2[nH]c3ccccc3c2C1)N1CCCCC1
    ·	>26
> COc1ccc(-c2nc3n(c2Br)CCC3)cc1
    ·	?
> CCOc1cc(-c2nc(-c3ccncc3)no2)cc(OCC)c1OCC
    i	·
> O=C(C1CCCC1)N(c1ccccc1)C1C=CS(=O)(=O)C1 (stereo not drawn)
    i	>57
> O=C(NCCO)c1cc2ccccc2cc1O
    i	>57
> COc1ccc(CCC(=O)NCc2cn3ccsc3n2)cc1
    i	>57
> [N-]=[N+]=CC(=O)CC(c1ccccc1)N1C(=O)c2ccccc2C1=O (stereo not drawn)
    i	>57
> O=C(Nc1ccc(N2CCN(C(=O)c3ccccc3)CC2)c(Cl)c1)c1ccc(Br)o1
    ·	>26
> COC(=O)[C@@]1(Cc2ccc(OC)cc2)[C@H]2c3cc(C(=O)N(C)C)n(Cc4cc(F)c(F)c(F)c4)c3C[C@H]2CN1C(=O)c1ccccc1
    i	·
> CCOC(=O)N1CCC(Nc2ccc3nnc(-c4ccccc4)n3n2)CC1
    i	·
> O=C(Cn1cccc1C(=O)c1ccccc1)NCCCN1CCOCC1
    i	>57
> CCOC(=O)c1cn(-c2ccccc2)nc1-c1ccncc1
    i	·
> NCOC(=O)Cc1ccc(Br)cc1
    i	·
> CN1CCC(=C2c3ccccc3C=Cc3ccccc32)CC1
    i	>26
> Cc1ccccc1C(=O)c1cccn1CC(=O)N1CCCCCC1
    i	>57
> Cc1ccc(Cl)cc1NC(=O)COC(=O)C1CCCC1
    i	>57
> Cc1csc2ncc(C(=O)Nc3ccon3)c(=O)n12
    i	>57

Compound activity from PubChem BioAssay.
